2A Renilla – FMDV 2A StopGo reporter, Renilla signal; 120,000 tested, 0.32% active; Potency, µM (highest dose often 57.5 µM), for the others: at the top dose signal change, negative = less light; HEK cells with a luciferase reporter of 2A StopGo recoding; active means well fitted falling curve with a large enough effect; inconclusive means small, poorly fitted or top-dose-only effect; inactive means no such curve, though single readings can be large or run the other way; note: nearly all actives have a fitted effect of over 55% in size; overnight with compound
2A firefly – lowers the firefly signal of an FMDV 2A StopGo reporter; Potency, µM (doses to about 57.5 µM), without a hit: at the highest dose signal change, negative = less light; 120,000 tested, 0.23% active; HEK cells with a luciferase reporter of 2A StopGo recoding; active = well fitted falling curve with a large enough effect; inconclusive = small, poorly fitted or top-dose-only effect; inactive = no such curve, though single readings can be large or run the other way; note: nearly all actives have a fitted effect of over 60% in size; overnight with compound
* hit, by the source's call; ? = inconclusive; [ ] = dose if it differs, or a comment. % is set by controls: 0 for no effect and ±100 for the full control effect; potency is the fitted concentration of half-maximal effect.

SMILES	2A Renilla	2A firefly
CCC1CCCCN1C(=O)Cn1c(=O)n(-c2ccccc2)c(=O)c2sccc21 (stereo not given)	6%	-8%
CCCNC(=O)c1cnn2c(C)c(Cc3c(C)cc(C)cc3C)c(C)nc12	?	?
Nc1nnnn1NCc1cc(Cl)ccc1OCc1ccccc1Cl	116%[activator]	13%
CC(=O)OCc1ccc(C(=O)NC(C)C(N)=O)cc1 (stereo not given)	44%[activator]	73%[activator]
O=C(Oc1ccc2c(-c3cc4ccccc4oc3=O)cc(=O)oc2c1)C1CC1	2%	20%
O=C(OCc1c(F)cccc1Cl)c1ccccc1Nc1ccccc1	13%	15%
CCCNC(=O)Nc1ccc(-c2noc(-c3ccco3)n2)cc1	22%	198%[activator]
Cc1cccc(NC(=S)NNC(=O)c2cccc(C)c2)c1	55%[activator]	0%
CCOC(=O)c1ccc(NC(=O)CC2C(=O)N(c3ccc(F)cc3)C(=O)N2Cc2cccnc2)cc1 (stereo not given)	-8%	-15%
CCCCCn1c(-c2ccc(OC)c(OC)c2)nc2ccccc21	49%[activator]	68%[activator]
CCOC(=O)c1[nH]c2ccccc2c1NC(=O)c1ccc(OC)c(OC)c1	1%	-4%
CC1CCCCN1C(=O)COC(=O)c1cnc2ccccc2n1 (stereo not given)	-10%	28%
CCCCc1ccc(NC(=O)Cn2ccn(-c3ccc(OC)cc3)c2=O)cc1	-4%	-2%
Cc1ccc(NC(=O)CCNS(=O)(=O)c2cccs2)cc1F	0%	70%[activator]
CCOC(=O)c1oc2ccccc2c1COC(=O)C1COc2ccccc2O1 (stereo not given)	-12%[1.06 µM]	0%
COc1ccccc1Oc1c(C)oc2cc(O)ccc2c1=O	12%	5%
COc1ccc(N2C(=O)CCS2(=O)=O)cc1S(=O)(=O)N1CCC(C)CC1	36%[activator]	10%
CCOC(=O)c1c(C)c(-c2ccccc2)n(CC(=O)Nc2ccc(OCC)cc2)c1C	-10%	-21%
Cc1nn(C)c(I)c1I	21%	38%[activator]
O=C(C(Sc1n[nH]c(-c2ccccc2)n1)c1ccccc1)N1CCOCC1 (stereo not given)	37%[activator]	21%

Six entries out of the list, sorted by formula weight, smallest number first:
SMILES	2A Renilla	2A firefly
CC(=O)OCc1ccc(C(=O)NC(C)C(N)=O)cc1 (stereo not given)	44%[activator]	73%[activator]
Cc1ccc(NC(=O)CCNS(=O)(=O)c2cccs2)cc1F	0%	70%[activator]
O=C(OCc1c(F)cccc1Cl)c1ccccc1Nc1ccccc1	13%	15%
CCCCc1ccc(NC(=O)Cn2ccn(-c3ccc(OC)cc3)c2=O)cc1	-4%	-2%
COc1ccc(N2C(=O)CCS2(=O)=O)cc1S(=O)(=O)N1CCC(C)CC1	36%[activator]	10%
CCOC(=O)c1c(C)c(-c2ccccc2)n(CC(=O)Nc2ccc(OCC)cc2)c1C	-10%	-21%

Carrying on.
SMILES	2A Renilla	2A firefly
CC(=O)N(Cc1cc2cc(C)ccc2[nH]c1=O)C(C)C	-5%	-1%
Cc1cc(C)cc(N(C(C)C(=O)N2CCCCCC2)S(C)(=O)=O)c1 (stereo not given)	3%	-6%
c1ccc(Cn2c(CN3CCOCC3)nc3ccccc32)cc1	-6%	0%
Cc1nc(SCC(=O)Nc2ccc(S(=O)(=O)N3CCOCC3)cc2)n(C2CCCCC2)c1C	-21%	?
Cn1c(=O)c2c(ncn2CC(=O)Nc2ccc(N3CCCCC3)cc2)n(C)c1=O	-8%	-2%
CCOCCCNC(=O)c1cc2cc(S(=O)(=O)N(C)C)ccc2n1C	-2%	7%
CS(=O)(=O)N1CCC(C(=O)Nc2ccc(Oc3ccccc3)cc2)CC1	-17%	-4%
CCc1cccc(-n2cc(C(=O)N3CCC(NC(=O)OC(C)(C)C)CC3)nn2)c1	-11%	-4%
COc1ccc(OCC(=O)N2CCN(Cc3cccc(OC)c3OC)CC2)cc1	-7%	-18%
CCC(=O)N1CCc2cc(CNC(=O)c3cccc(N(C)C)c3)ccc21	10%	-4%
CCOC(=O)C1CCN(Cc2cc(=O)oc3ccc(O)cc23)CC1	12%	9%
O=C(O)CCCN1CCCC1	0%	3%
CCC(=O)NC1(C(F)(F)F)C(=O)NC(C)=C1C#N (stereo not given)	-3%	-7%
O=c1cc(-c2ccccc2)sc2nnc(-c3ccccc3F)n12	8%	115%[activator]
Cc1nn(Cc2ccccc2)c(C)c1CNS(=O)(=O)c1ccc(F)cc1	26%	3%
CC(=O)c1sc(Nc2ccc(C#N)cc2)nc1C	-7%	77%[activator]
Cc1ccc(-c2csc(Nc3ccccn3)n2)c(C)c1	?	27%
O=C(O)c1ccc(CNCCCN2CCOCC2)cc1	2%	0%
COCCn1cnnc1SC(C)C(=O)c1ccc(Cl)cc1 (stereo not given)	22%	16%
CC(C)NC(NC(=O)c1ccc(C(C)(C)C)cc1)C(Cl)(Cl)Cl (stereo not given)	4%	0%
CCN(CC)S(=O)(=O)c1nnc(NC(=O)COc2ccc(C)cc2)s1	-10%	0%
CNC(=O)c1ccc(CN(C)C(=O)CCc2ncc(-c3ccccc3F)o2)cc1	7%	52%[activator]
CC(C)NC(=O)c1nccnc1C(=O)O	-7%	-1%
CN(CCOC(=O)c1cc2ccccc2o1)C1CN(Cc2cn(Cc3ccccc3C(F)(F)F)nn2)S(=O)(=O)C1 (stereo not given)	15%	16%
O=C(CCc1ncc(-c2ccccc2F)o1)Nc1ccccc1Oc1ccccc1	-13%	29%
CCOc1ccccc1NC(=O)c1nnn(CC(=O)Nc2ccc(OC)c(OC)c2)c1N	-11%	-13%
CCOC(=O)c1csc(C)c1-c1ccccc1	-6%	1%
O=C(Nc1cccc(Cl)c1F)C1CC(=O)N(C2CCCC2)C1 (stereo not given)	-2%	-5%
Cc1ccc(N=C2C=CC(C)(C(Cl)(Cl)Cl)C=C2)cc1C (stereo not given)	4%	53%[activator]
Nc1oc2ccccc2c(=O)c1-c1cccc2ccccc12	-30%	-17%
Cn1cnnc1SCc1coc(-c2cccc(Cl)c2)n1	-1%	136%[activator]
COc1ccc(CNC(=O)c2cnc3sc(N4CCCC4)nn3c2=O)cc1OC	-12%	-6%
Cc1ccc(NC(=O)/C(C#N)=C\c2ccc(OC(F)F)cc2)c(C)c1	130%[activator]	10%
Cc1ccc(C)c(CN2CCCN(Cc3ccc(F)cc3)S2(=O)=O)c1	45%[activator]	-16%
CCOC(=O)C1CCCN(C(=O)c2ccc3c(c2)N(Cc2cccc(Cl)c2)C(=O)c2ccccc2S3(=O)=O)C1 (stereo not given)	53%[activator]	-13%
O=C(C1CCCCC1)N(Cc1cccs1)C1CC1	-9%	-11%
COc1cc2c(cc1OC)CN(C(=O)CCc1ncc(-c3ccc(Cl)cc3)o1)CC2	-30%	24%
CCOc1cccc(CNCCNC(=O)c2nonc2N)c1	-18%	-8%
Cc1cc(C)cc(N2C(=O)CC(c3ccc(C(F)(F)F)cc3)C3=C2COC3=O)c1 (stereo not given)	-10%	-8%
Cc1cccc(C)c1OCC(=O)NCc1ccc(Cn2cccn2)cc1	54%[activator]	13%

A second format for some results above:
mol,2A Renilla,2A firefly
Nc1oc2ccccc2c(=O)c1-c1cccc2ccccc12,-30%,-17%
CCOC(=O)c1csc(C)c1-c1ccccc1,-6%,1%
CC(C)NC(=O)c1nccnc1C(=O)O,-7%,-1%
CCOC(=O)C1CCCN(C(=O)c2ccc3c(c2)N(Cc2cccc(Cl)c2)C(=O)c2ccccc2S3(=O)=O)C1 (stereo not given),53%[activator],-13%
Cc1cc(C)cc(N2C(=O)CC(c3ccc(C(F)(F)F)cc3)C3=C2COC3=O)c1 (stereo not given),-10%,-8%

More results
SMILES	2A Renilla	2A firefly
COc1ccc(OCC(=O)Nc2cccc(C(=O)OCc3cc(=O)n4nc(C)sc4n3)c2)cc1	-14%	17%
COc1ccc(C(C)=O)cc1CS(=O)(=O)Cc1ccccc1F	-6%	-6%
COc1ccc(C2CC(=O)Nc3c2c(=O)[nH]c2ncnn32)cc1OC (stereo not given)	0%	-12%
Cn1c(=O)c2c(ncn2CC(=O)c2ccc(O)cc2)n(C)c1=O	11%	31%[activator]
COc1cc(NC(=O)c2nc3ccccc3nc2N2CCCCC2)cc(OC)c1OC	37%[activator]	585%[activator]
COc1cc(/C=C(/C#N)C(=O)O)cc(Cl)c1OC(C)C	9%	49%[activator]
COc1ccc2c(C)c(CCC(=O)N3CCCCC3)c(=O)oc2c1C	31%[activator]	185%[activator]
CCOc1ccccc1NC(=O)Nc1cc2c(cc1N1CCCCC1)n(CC)c(=O)n2CC	-7%	-24%
COc1cccc(-c2c(NC(=O)c3ccc([N+](=O)[O-])cc3)oc3ccccc3c2=O)c1	36%[activator]	0%
COc1ccc(-c2cn3c(n2)sc2cc(C(=O)Nc4ccc(F)cc4Cl)ccc23)cc1	0%	86%[activator]
CCN(c1ccccc1C)S(=O)(=O)c1nnc(NC(=O)c2ccccc2C)s1	37%[activator]	-15%
Cc1ccc(OCC(=O)Nc2ccc(C(=O)OCc3cc(=O)n4ccsc4n3)cc2)cc1C	-10%	-8%
CS(=O)(=O)Nc1ccccc1CNC(=O)CC1CCCCC1	12%	8%
Cc1ccc(-c2cnc(SCC(=O)Nc3ccccc3F)o2)cc1C	-7%	58%[activator]
CN(C)C(=O)CNC(=O)c1ccc(C(F)(F)F)cc1	11%	11%
C/C(CC(C)(C)C1CCCCC1)=N\O	-3%[1.06 µM]	-13%
Cc1cc(C)cc(Nc2ccc([N+](=O)[O-])cn2)c1	0%	84%[activator]
O=C(O)CC1C(=O)NCCN1Cc1ccc(Cl)c(F)c1 (stereo not given)	-4%	14%
Cc1ccc(NC(=O)c2cnc(NCc3ccc4c(c3)OCO4)nc2C)c(C)c1	5%	1%
CN(CC(=O)N(Cc1ccco1)CC(F)(F)F)C1CCCc2ccccc21 (stereo not given)	-3%	2%
CCOc1ccc(CCNC(=O)CS(=O)(=O)Cc2nc(-c3ccccc3Cl)oc2C)cc1	5%	?
CCn1c2ccccc2c2cc(CN3CCN(Cc4ccccc4Cl)CC3)ccc21	-5%	-4%
Cc1nc(NC(=O)c2ccccc2)sc1-c1csc(Nc2ccccc2)n1	-2%	77%[activator]
COc1cccc(C(=O)Nc2ccc3oc(-c4cccc(OC)c4)nc3c2)c1	?	?
CCCCC(CC)CNC(=O)N1CCN(c2ncc(C(F)(F)F)cc2Cl)CC1 (stereo not given)	16%	0%
COCCCNC(=O)c1ccc(C)c(-n2c(C)nc3cccnc32)c1	-8%	-16%
CCc1ccccc1NC(=O)NCc1nc(-c2ccccc2C)oc1C	8%	8%
Cc1cnc2c(S(=O)(=O)N3CCN(C)CC3)cccc2c1	-13%	-12%
COc1ccc(CNC(=O)c2cc3c(s2)-c2ccccc2OC3)cc1	-9%	9%
Cc1ccc2nc(COc3ccccc3NC(=O)C(C)(C)C)cc(=O)n2c1	-4%	-17%
Cc1c(Cl)cccc1NC(=O)COc1ncnc2ccc(Br)cc12	-4%	-2%
CNc1oc(-c2cc(S(=O)(=O)N(Cc3ccccc3)C(C)C)c(C)o2)nc1C#N	1%	-19%
N#CC(C(=O)NCc1ccccc1)c1nc2ccccc2nc1N1CCN(CCc2ccccc2)CC1 (stereo not given)	2%	7%
CCOc1ccccc1CNc1nc2nc(C)c(CC(=O)OC)c(=O)n2[nH]1	-9%	-7%
COc1cccc(NC(=O)c2ccc(CNS(=O)(=O)c3ccc4c(c3)C(C)(C)C(=O)N4C)cc2)c1	2%	?
COc1ccc(-c2c(C)c3ccc(OCCN4CCN(C)CC4)cc3oc2=O)cc1OC	-18%	-15%
CC(C)(C)C(=O)NCCCC(=O)NCc1ccco1	6%	11%
O=C(Nc1cc(Cl)ccc1-n1cncn1)C1CC(=O)N(c2ccc3c(c2)OCCO3)C1 (stereo not given)	1%	15%
c1ccc(-c2c3c(ccc4ccccc43)[o+]c3ccc4ccccc4c23)cc1	12%	9%
O=C(NCCNc1ccc(C(F)(F)F)cn1)C1CC=CCC1 (stereo not given)	?	-8%

2 entries drawn at random from those above:
SMILES	2A Renilla	2A firefly
COCCCNC(=O)c1ccc(C)c(-n2c(C)nc3cccnc32)c1	-8%	-16%
O=C(NCCNc1ccc(C(F)(F)F)cn1)C1CC=CCC1 (stereo not given)	?	-8%

Further compounds follow.
SMILES	2A Renilla	2A firefly
CNC(=O)C(C)Sc1cc(-c2ccccc2)c2ccc(OC)cc2n1 (stereo not given)	87%[activator]	8%
CC(C)CCn1nc(C(=O)OCC(=O)Nc2ccc(Cl)cc2F)c2ccccc2c1=O	-14%	-4%
CCCCCCOc1ccc2c(C)c(CCC(C)C)c(=O)oc2c1	-8%	33%[activator]
Cc1ccc(CNC(=O)Cn2nc3ccc(SC(C)(C)C)nn3c2=O)cc1	-15%	49%[activator]
Cc1ccc(-n2c(SCC(=O)Nc3ccc(Br)cc3F)nc3c(=O)[nH]cnc32)cc1	32%[activator]	17%
CCOc1cc(C2N=C(N)Nc3nc4ccccc4n32)cc(Cl)c1O (stereo not given)	-13%	3%

Bioassay records from PubChem.
